# Screens (PubChem BioAssay)
# gsp agonist: qHTS for Agonist of gsp, the Etiologic Mutation Responsible for Fibrous Dysplasia/McCune-Albright Syndrome: qHTS | gsp mutant cells, cAMP HTRF, 30 min; control for the full effect not named in the record | AID 624287, 2012 | Potency, µM (titrated, usually from 76.9 µM), inactives show at the top dose activation (cAMP increase), hits mostly activators | hit rate 0.13% among 340,000; active = well fitted activation curve with a large enough effect; inconclusive = small, poorly fitted or top-dose-only effect, or another doubt; inactive = no such curve, though single readings can be large or run the other way; cell line not stated here;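 note: phosphodiesterase inhibitor Ro 20-1724 added with compounds to block cAMP breakdown; potency is the fitted concentration of half-maximal effect; nearly all actives have a fitted effect of over 60% in size; about a fifth of the inactives were tested at one dose only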
#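 Cells stably selected in G418 were plated at 2000/well, grown 16-24 hr, then given compounds in DMSO with the PDE inhibitor […] (300 uM solution added) for 30 min at 37C; cAMP was read by HTRF.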
# gsp antag: qHTS for Antagonists of gsp, the Etiologic Mutation Responsible for Fibrous Dysplasia/McCune-Albright Syndrome: qHTS | gsp-mutant cells, cAMP HTRF, 30 min; control for the full effect not named in the record | Potency, µM (series often up to 76.9 µM), inactives show top-dose activity change, negative = inhibition, hits mostly inhibitors | hit rate 0.4% among 340,000; active = falling curve of any shape with a large fitted effect; inconclusive = falling curve, mostly with a smaller effect; inactive = flat or rising curve; cell line not stated here;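 note: intracellular cAMP measured with PDE inhibitor Ro 20-1724 present during compound exposure; potency is the fitted concentration of half-maximal effect; % is set by controls: 0 for no effect and ±100 for the full control effect; nearly all actives have a fitted effect of over 65% in size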
#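 Cells in G418 medium, seeded 16-24 h, 37C; buffer exchange to DPBS + 1 mM CaCl2, 0.5 mM MgCl2, 0.05% BSA; cpds in DMSO + […] (300 uM stock), 30 min 37C; HTRF cAMP detection.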
# ClpP mod: qHTS Assay for Activators of ClpP. ATP-dependent Clp protease proteolytic subunit (Bacillus subtilis (strain 168)), P80244. purified B. subtilis ClpP, FRET peptide cleavage, 20 min. Potency, µM (series often up to 57.5 µM), inactives show at the top dose activity change, negative = active. hit rate 1.9% among 340,000; active = well fitted falling curve with a large enough effect; inconclusive = small, poorly fitted or top-dose-only effect; inactive = no such curve, though single readings can be large or run the other way; note: potency is the fitted concentration of half-maximal effect; the source files actives as falling curves though it sought activators and does not explain the sign; nearly all actives have a fitted effect of over 65% in size; many hits overshoot -100%
# Target sequence (P80244 whole entry, looked up): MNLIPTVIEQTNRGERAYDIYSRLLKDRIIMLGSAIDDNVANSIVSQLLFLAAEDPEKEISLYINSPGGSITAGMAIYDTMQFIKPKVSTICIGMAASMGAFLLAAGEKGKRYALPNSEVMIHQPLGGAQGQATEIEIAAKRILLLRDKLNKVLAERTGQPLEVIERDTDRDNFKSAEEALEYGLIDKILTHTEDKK
#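 ClpP 10 microg/mL final, pH 8 Tris/KCl buffer with BSA, glycerol, Tween-20; compound pinned in; FRET-FV substrate; RT 20 min; Ex320/Em430; ΔFRET vs ADEP 5.8 microM, DMSO, no enzyme.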
# Menin-MLL FL inh: qHTS Assay for Inhibitors Targeting the Menin-MLL Interaction in MLL Related Leukemias: Competition With Fluorescein Labeled MLL-derived Peptide; Fluorescence polarization, fluorescein-MLL peptide displacement from menin; FP activity change, % at 61.4 µM; 290,000 tested, under 10 active; inconclusive = falling polarisation curve, or a change in total fluorescence; inactive = total fluorescence flat and polarisation flat or rising; no compound was filed as active; the % refers to the polarisation; negative = inhibition;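 note: % of control where 0% means no effect; inhibitors lower the polarisation; unlabelled MLL peptide was the positive control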
# TRPML1 inh: qHTS for Inhibitors of the Human Mucolipin Transient Receptor Potential 1 (TRPML1); Mucolipin-1 (Homo sapiens), Q9GZU1; TRPML1-inducible cells, Ca2+ dye fluorescence, FDSS; hits give low values; inhibition of EC80 agonist-evoked calcium signal; activity change, negative = inhibition, % (concentration not given with the values); hit rate 0.02% among 390,000; AID 624415, 2012; in the data active means activity change below about -50%; inconclusive means about -30% to -50%; inactive means above about -30%;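 note: stimulus is agonist 54-4 at its EC80 concentration; % is set by controls: 0 for no effect and ±100 for the full control effect; compound concentration not given in the record; the text of the record puts the active cut at -80%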
# Target sequence (Q9GZU1 whole entry, looked up): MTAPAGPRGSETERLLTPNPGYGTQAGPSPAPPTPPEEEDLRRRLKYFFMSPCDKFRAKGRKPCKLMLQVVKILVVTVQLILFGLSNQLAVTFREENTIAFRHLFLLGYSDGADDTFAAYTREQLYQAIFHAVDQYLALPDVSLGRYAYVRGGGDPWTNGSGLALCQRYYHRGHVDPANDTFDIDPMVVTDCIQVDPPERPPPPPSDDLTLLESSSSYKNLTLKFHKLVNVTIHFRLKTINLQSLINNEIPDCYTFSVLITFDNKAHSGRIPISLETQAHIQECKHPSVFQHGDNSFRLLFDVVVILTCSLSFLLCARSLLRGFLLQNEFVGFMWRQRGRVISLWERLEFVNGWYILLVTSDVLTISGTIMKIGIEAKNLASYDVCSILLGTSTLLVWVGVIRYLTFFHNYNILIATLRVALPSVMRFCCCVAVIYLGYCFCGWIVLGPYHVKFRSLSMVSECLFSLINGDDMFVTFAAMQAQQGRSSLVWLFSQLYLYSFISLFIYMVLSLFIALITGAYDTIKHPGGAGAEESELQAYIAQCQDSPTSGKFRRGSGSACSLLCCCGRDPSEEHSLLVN
#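 Calcium fluorescence in TRPML1-DL cells induced overnight with Tet: a 110 s read after compound pin addition, then a 110 s antagonist read after challenge with 54-4 at 4 uM final (EC80).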
# TRPML1 ag: qHTS for Agonists of the Human Mucolipin Transient Receptor Potential 1 (TRPML1) | TRPML1-expressing cells, Ca2+ dye fluorescence, FDSS; host cell line not named in the record; reference of the full effect not given here | activation, % (test concentration not listed) | hit rate 0.12% among 410,000; in the data active = activation above about 50%; inconclusive = about 30% to 50%; inactive = below about 30%; note: 0% is about no effect; the text of the record puts the active cut at 80%
#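 Kinetic FDSS Ca2+ read in Tet-induced TRPML1-DL cells (ABD Ca8 dye plus quencher, 45-90 min RT loading): baseline, then compound, then 110 s agonist window; EC80 agonist 54-4 at 4uM final added afterwards for a 110 s antagonist window.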
# * = called active by the depositor; u = inconclusive; x = no result given; & = joins results of further samples; [ ] = remark or other dose. Outcome played no part in choosing rows; any-hit rate near 2.1%.
SMILES,gsp agonist,gsp antag,ClpP mod,Menin-MLL FL inh,TRPML1 inh,TRPML1 ag
CCOc1cc(C)c(S(=O)(=O)N2CCCCC2)cc1C,1%,8%,1.0%,0.3,-6,2.4
COc1ccccc1N1CCN(C(=O)C2CCN(C(=O)c3ccc(C(C)(C)C)cc3)CC2)CC1,-40%[inhibitor],5%,0.6%,2.2,-16,-0.3
O=C(Nc1ccccc1C(=O)O)c1ccc(Cl)c(S(=O)(=O)N2CCOCC2)c1,27%,u,-2.0%,1.3,23,0.4
COC(=O)c1ccccc1NCCO,3%,11%,3.9%,-2.6,-1,3.0
COc1cccc(-n2nnc3c(=O)n(Cc4ccc(Br)cc4)cnc32)c1,5%,4%,17%,5.9,0,0.2
COc1ccc(S(=O)(=O)Nc2c(C)c(C)cc3c2ncn3C)cc1,-4%,3%,x,-1.2,29,1.2
CCC(C)(C(=O)NC1CCCC1)N(C(=O)CNC(C)=O)c1ccccc1 (stereo not drawn),0%,-1%,1.0%,-1.1,-9,-1.0
CC(C)N(Cc1cnn(C)c1)Cc1nc(COc2ccccc2)no1,7%[15.4 µM],12%,x,3.3,-9,1.0
COc1cc(NC(=O)CCc2nnc3ccc(N4CCC(C)CC4)nn23)cc(OC)c1,2%,0%,-3.1%,6.9,-8,-0.4
CCN(C(=O)COc1ccccc1)c1nnc(-c2cccnc2)s1,29%,11%,29%,0.1,-3,2.7
NC(=S)N/N=C/c1ccc(-n2nncc2-c2ccc(Cl)cc2)cc1,7%,-12%,x,x,4,3.2
CCN(C(=O)Cn1cc(S(=O)(=O)N2CCN(c3ccccc3F)CC2)c2ccccc2c1=O)c1ccc(C)c(C)c1,x,x,-23%,x,4,0.9
CCOc1ccc(C(=O)Nc2nccs2)cc1[N+](=O)[O-],-3%[15.4 µM],-6%,x,0.1,-8,2.3
COc1ccccc1CNC(=O)C1CCN(S(=O)(=O)c2ccc3c(c2)OCCO3)CC1,9%[15.4 µM],-15%,x,x,24,0.6
COc1cc(C2N(c3ccc(Cl)cc3)C(=O)C3CCCN32)cc(OC)c1OC (stereo not drawn),-74%[inhibitor],1%,0.4%,-0.2,-4,0.9
O=[N+]([O-])c1ccc2nc(-c3ccccc3)[nH]c2c1,-30%[inhibitor],-14%,-1.3%,0.7,10,-0.1
O=C(COC(=O)c1ccc[n+]([O-])c1)Nc1cc([N+](=O)[O-])ccc1Cl,28%,2%,x,x,4,0.9
Cc1cc(-n2ccnc(NCCc3ccc(S(N)(=O)=O)cc3)c2=O)ccc1Br,x,x,-8.2%,x,36,1.3
CC(C)C(O)(C#CCN1CCCCCC1)c1ccccc1 (stereo not drawn),2%[15.4 µM],-2%,x,-2.5,-12,1.4
CCOC(=O)CCCCN(Cc1ccccc1F)S(=O)(=O)c1ccc(F)c(C(=O)Nc2cc(Cl)cc(Cl)c2)c1,x,x,u,x,-8,7.1
CSCC[C@H](NC(=O)Nc1ccc(C)cc1)C(=O)O,27%,7%,-1.1%,0.1,11,0.4
O=C(COC(=O)c1ccc(O)cc1)Nc1nccs1,-5%,4%,x,-1.4,12,0.1
O=C(c1ccc(F)cc1)C1CCN(C(=S)Nc2ccc(F)cc2)CC1,13%,-15%,-0.4%,-9.3,-4,0.4
CN=C1SC(CC(=O)Nc2ccc(C(=O)O)cc2)C(=O)N1C (stereo not drawn),1%,2%,0.4%,-1.3,-15,-0.1
CCOC(=O)c1ccc(COC(=O)c2ccc3c(c2)-c2ccccc2C3=O)cc1,21%,-16%,-1.2%,-2.0,-7,-0.1

# Continued:
SMILES,gsp agonist,gsp antag,ClpP mod,Menin-MLL FL inh,TRPML1 inh,TRPML1 ag
CCOc1ccc(C(=O)OCC(=O)Nc2cc(S(=O)(=O)N3CCOCC3)ccc2N2CCOCC2)cc1,-13%,0%,0.6%,x,3,-0.4
Cc1ccsc1CNn1cnnc1SCc1ccc(Cl)cc1,0%,-10%,1.5%,-2.6,22,0.8
COc1cccc(OC)c1CN1CCCC(C(=O)c2ccccc2SC)C1 (stereo not drawn),u,9%,x,-4.4,-3,0.7
CC(=O)NCC(=O)NC(C(=O)Nc1ccc2c(c1)OCCO2)c1ccc(C)cc1 (stereo not drawn),u,4%,2.1%,0.4,-25,0.5
CN(C(N)=S)c1ccccc1,-5%,-9%,-5.3%,-1.0,-23,-0.6
O=C(Cc1ccc(Cl)cc1Cl)OCC(=O)c1ccc[nH]1,-11%,4%,-0.6%,-0.9,7,0.5
O=C(CSc1nc(N2CCOCC2)nc(N2CCOCC2)n1)Nc1ccc(Cl)cc1Cl,-4%,8%,-5.5%,x,10,1.6
COc1cc(OC)cc(C(=O)OCC(=O)NC2CCCCCCC2)c1,-70%[inhibitor],x,-26%,x,-18,-0.5
Cc1ccc(NC(=O)CN2CCN(S(=O)(=O)c3ccc(F)cc3)CC2)cc1C,-5%,-8%,-1.6%,x,-4,1.0
Cc1cc(OC(C)C(=O)N2CCC(c3nc4ccccc4o3)CC2)ccc1Cl (stereo not drawn),x,x,-2.2%,x,7,3.0
O=C(NCc1nnc(SCC(=O)N2CCN(c3ccccc3)CC2)o1)c1ccc(F)cc1,-79%[inhibitor],-10%,-29%,-2.1,-16,1.7
CCCn1c(N)c(C(=O)CSc2nnc(-c3c[nH]c4ccccc34)n2C2CC2)c(=O)[nH]c1=O,7%[15.4 µM],3%,0.3%,x,-17,-0.5
CCOc1cc(/C=N/NC(=O)Cn2nc([N+](=O)[O-])cc2C)cc(Br)c1OCc1ccccc1F,-44%[inhibitor],-9%,2.2%,4.3,11,0.6
Cc1ccc(NC(=O)Cn2c(=O)n(Cc3nc(C)no3)c(=O)c3cc4c(cc32)OCO4)c(C)c1,x,x,22µM*,x,4,1.0
CCCCN(C)C(=O)c1cc2cc3ccc(OC)cc3nc2s1,u,-9%,u,-1.0,-5,0.8
CCOc1ccc(NC(=O)C(C)Oc2ccc(C#N)cc2)cc1S(=O)(=O)N1CCCC1 (stereo not drawn),-32%[inhibitor],-18%,-1.8%,x,-7,4.9
CNC(=S)NCc1ccc(Cl)cc1,-14%,9%,-0.7%,x,-3,-1.2
O=[N+]([O-])c1ccccc1S(=O)(=O)N1CCN(Cc2cc3c(cc2O)OCO3)CC1,-21%,-3%,x,1.6,-7,0.5
CCC(c1nnnn1C(C)(C)C)N1CCN(C/C=C/c2ccccc2)CC1 (stereo not drawn),x,x,0.1%,x,-7,-0.5
COc1ccc(-c2oc3ncnc(NCCCN(C)C)c3c2-c2ccc(OC)cc2)cc1,25%,-3%,3.6%,-5.1,13,0.6
Clc1ccccc1/C=N/c1cc(-c2ccccc2)nn1-c1ccccc1,-21%,-10%,-2.8%,1.7,27,1.5
Cc1ccc(C)c(N2CCN(C(=O)C3CCN(c4nc(-c5ccc(C(C)C)cc5)no4)CC3)CC2)c1,x,x,-8.2%,x,8,0.9
CCCCN(CC)CCNC(=O)C1CCN(S(=O)(=O)c2cccc3nsnc23)CC1,6%,2%,-1.2%&0.8%,3.7,5&0,-0.5&-0.1
Fc1ccc(C(c2nnnn2C2CCCC2)N2CCN(Cc3ccccc3)CC2)cc1 (stereo not drawn),-2%,10%,-0.5%,-0.6,17,-1.0
Cc1ccc(CNC(=O)c2c(-c3ccccc3Cl)noc2C)o1,x,x,-1.1%,x,5,1.5

# Arranged by count of non-hydrogen atoms (low to high): part of the list above
SMILES,gsp agonist,gsp antag,ClpP mod,Menin-MLL FL inh,TRPML1 inh,TRPML1 ag
CNC(=S)NCc1ccc(Cl)cc1,-14%,9%,-0.7%,x,-3,-1.2
COc1cccc(OC)c1CN1CCCC(C(=O)c2ccccc2SC)C1 (stereo not drawn),u,9%,x,-4.4,-3,0.7
CCOc1cc(/C=N/NC(=O)Cn2nc([N+](=O)[O-])cc2C)cc(Br)c1OCc1ccccc1F,-44%[inhibitor],-9%,2.2%,4.3,11,0.6

# Further entries follow.
SMILES,gsp agonist,gsp antag,ClpP mod,Menin-MLL FL inh,TRPML1 inh,TRPML1 ag
C[C@]12c3[nH]c4ccccc4c3CCN1C(=O)C(CC(=O)NCCC1=CCCCC1)C[C@@H]2C(=O)N1CCCCC1 (stereo partly drawn),x,-1%,-1.0%,x,-11,-0.4
O=C(O)c1ccc(-n2nc(-c3ccccc3)c3ccccc3c2=O)cc1,4%,45µM*,x,0.0,-8,0.1
Cc1ccc(CNC(=O)CCNC(=O)Cn2ccc3ccccc3c2=O)o1,-25%,-7%,u,-1.6,-19,-0.4
Cc1nn(-c2ncc(C(F)(F)F)cc2Cl)c(=O)n1-c1ccccc1F,11%[15.4 µM],16%,x,-2.5,11,-1.0
Nc1nnc(SCC(=O)N2CCCCC2)s1,18%,-3%,-1.0%,x,4,0.0
CCOC(=O)c1sc(NC(=O)c2cccc(S(=O)(=O)N3CCN(C)CC3)c2)cc1C,-17%,10%,-2.0%,1.3,3,1.2
Cc1nc2cc(NC(=O)Nc3ccc(Br)cc3)ccc2o1,6%[15.4 µM],-3%,x,1.0,-1,-0.9
Cn1c(=O)n(C)c2cc(S(=O)(=O)NCc3ccccc3)ccc21,-37%[inhibitor],5%,-1.6%,2.4,-8,-0.7
CCN1CCc2c(OCC(=O)N3N=C(c4cccs4)CC3c3ccc(F)cc3)cccc2C1=O (stereo not drawn),1%,-17%,7.9µM*,1.6,30,0.6
O=C(NNC(=O)c1cccnc1)NC1CCCCC1,-49%[inhibitor],6%,-0.9%,-3.4,29,0.4
CCOc1ccc(C(=O)NCc2ccco2)cc1,-1%,4%,-1.2%,4.3,u,-0.3
NC(=O)C1(Nc2ccccc2Cl)CCCC1,3%,6%,-0.7%,x,-9,-0.1
O=C(/C=C/Sc1ccccc1)c1ccccc1,2%,1%,-16%,1.2,-3,0.3
CN(C)S(=O)(=O)c1cccc(COC(=O)c2ccc3c(c2)OCO3)c1,2%,-15%,x,-1.8,2,-0.6
Cc1ccc(C(c2nnnn2C2CCCCC2)N2CCN3CCCC3C2)cc1 (stereo not drawn),-11%,14%,-0.8%,0.1,4,0.9
COC(=O)c1c(C(=O)OC)c(-c2ccc(C)cc2)n2c1CCC2,4%,-11%,-0.8%,14,14,3.7
Cc1ccccc1N(CC(=O)N1CCc2ccccc2C1)S(C)(=O)=O,-18%,4%,0.4%,-1.1,-6,-0.5
COc1ccc([C@H]2CC(=O)C=C(c3c(OC)cccc3OC)C2)cc1,-32%[inhibitor],3%,-1.3%,x,-12,1.3
Cc1cccc(C(=O)O)c1[N+](=O)[O-],x,-1%,-2.5%,x,-8,0.3
